Compound activity: PubChem BioAssay, several laboratories
MT1-MMP reporter: MT1-MMP gene expression reporter suppression – cell-based, luciferase reporter, luminescence (AID 618); calls from a first round at 10 µM; hits with a dose series show EC50 in µM; MT1-MMP promoter luciferase reporter cells, luminescence; 87,000 compounds, 0.62% hits;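 active = over half of the reporter light lost at 10 µM or EC50 under 50 µM; inactive = the rest and hits that failed the dose series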;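 also: actives suppress MT1-MMP promoter-driven transcription so potencies describe inhibitors; HT1080 fibrosarcoma cells; overnight exposure; toxic or luciferase-blocking compounds were not removed from the actives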
Hsc70: small molecules displacing fluorescent ligand from Hsc70 – biochemical, fluorescence polarization, primary screen (AID 568); 83,000 tested, under 10 active; one-dose displacement, % at 20 µM; IC50 in µM for titrated hits; Hsc70 fluorescence polarization, probe displacement; higher % means a stronger effect; strong numbers were not always called active;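 active = displacement above 50% without optical interference and an IC50 on retest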;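 also: ATPase domain with a fluorescein-tagged ATP probe; 0% = vehicle and 100% = excess ADP; read after one hour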
WNV NS2B-NS3 inh: WNV NS2B-NS3 proteinase inhibition; P06935; WNV NS2B-NS3 protease, fluorogenic substrate Ex360/Em465; stronger effect = lower value; z-score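 (tested at a level between 10 and 100 µM)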; 65,000 compounds, 0.18% hits; AID 577;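 active = z-score at -3 or under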;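 also: score is relative to mean and spread of the compound wells of a plate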
Target sequence (P06935 1371-1501 limits assumed): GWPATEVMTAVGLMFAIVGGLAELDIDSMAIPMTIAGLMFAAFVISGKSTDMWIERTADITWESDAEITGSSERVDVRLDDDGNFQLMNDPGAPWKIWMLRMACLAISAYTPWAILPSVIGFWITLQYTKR
Target sequence (P06935 1502-1679 limits assumed): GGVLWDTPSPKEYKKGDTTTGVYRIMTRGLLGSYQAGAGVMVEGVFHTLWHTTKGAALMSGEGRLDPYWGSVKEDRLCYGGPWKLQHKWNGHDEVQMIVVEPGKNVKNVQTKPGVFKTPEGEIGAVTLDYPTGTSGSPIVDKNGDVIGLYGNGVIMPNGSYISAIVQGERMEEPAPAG
* marks the source's active call; other numbers are inactive results; i = inactive; x = no result given.

structure | MT1-MMP reporter | Hsc70 | WNV NS2B-NS3 inh
COc1cccc(Nc2nnc(SCn3nnc4ccccc4c3=O)s2)c1 | i | -2.8% | -0.82
S=c1[nH]nc(Cc2ccccc2)n1Cc1ccco1 | i | -1.0% | -0.44
Cn1c(=O)c2c(nc3sccn32)n(C)c1=O | i | 0.9% | 0.32
CCOc1ccc(NC(=O)COC(=O)CCCc2c[nH]c3ccccc23)cc1 | i | -0.4% | x
CCOC(=O)CCc1c(C)c2ccc(OCc3nn[nH]n3)cc2oc1=O | i | 1.8% | -0.26
COc1cc(Cl)cc(C2NC(=O)NC(C)=C2C(C)=O)c1OCC(=O)O (centres undefined) | i | -0.7% | x
Nc1nc2c(s1)CCc1c-2cnn1-c1ccccc1 | i | -2.1% | -0.16
CCOc1ccc2ccccc2c1CNCCN1CCOCC1 | i | -5.1% | 0.28
Cn1c(C(=O)Nc2ccccc2)cc2sccc21 | i | -0.2% | x
Cc1cccc(OCC(=O)Nc2cc(C)ccc2O)c1 | i | 1.9% | 0.52
Cc1nc(N2CCN(c3ccccc3)CC2)nc2c1C(=O)CCC2 | i | -1.1% | -1.2
O=C(Nc1ccccc1-c1ccccc1)NC1CCN(C(=O)N2CCOCC2)CC1 | i | -1.5% | -0.55
Cc1cc(N(CC(=O)O)S(C)(=O)=O)ccc1Br | i | -1.8% | -0.16
CCOC(=O)c1ccccc1NS(=O)(=O)c1ccc(C)cc1 | i | 17% | x
O=C(c1cccc(F)c1)N1CCN=C1SCc1cccnc1 | i | 4.1% | 0.66
CCCCn1c(SCC(=O)Nc2cc(C)on2)nnc1-c1ccco1 | i | -1.5% | x
CCCCc1ccc(NS(=O)(=O)c2cccs2)cc1 | i | 5.2% | x
CCC(C)(c1ccc(C=O)s1)c1ccc(C=O)s1 | i | 4.9% | x
COc1ccc(C(C)=O)c2c(O)cccc12 | i | 2.1% | -0.74
COC(=O)CSc1nc(C)c(Oc2ccccc2)c(=O)[nH]1 | i | -1.4% | 0.02
Cc1ccc(SCCNS(=O)(=O)c2ccc3c(c2)OCCO3)cc1 | i | -5.6% | -1.1
O=C(CSc1ccc2c(c1)OCCO2)Nc1ccc(Cl)cn1 | i | 5.7% | -0.96
COc1ccc(N2C(=O)NC3CC2(C)Oc2ccccc23)cc1OC (centres undefined) | i | -3.0% | -1.2
N#Cc1nc(-c2ccco2)oc1NCCc1ccccc1 | i | -5.9% | -0.42
c1ccc(-n2nnnc2-c2cnc(-c3cccnc3)nc2-c2cccs2)cc1 | i | -1.6% | x
CCOC(=O)c1cc2c(=O)n3cccc(C)c3nc2n(C)c1=N | i | -2.9% | 0.31
Cc1ccc(S(=O)(=O)NCCOc2nc(N(C)C)nc(N3CCOCC3)n2)cc1 | i | -1.8% | 1.7
C=COCCn1c(=N)n(CCC)c2ccccc21 | i | -6.6% | 0.68
CCOc1cc(CNc2ccc3[nH]c(=O)[nH]c3c2)ccc1OCC(=O)NC(C)(C)C | i | 5.5% | 0.79
COC(=O)[C@H](Cc1ccccc1)NC(=O)Nc1ccc(C)cc1 | i | -0.7% | x
Cc1ccc(S(=O)(=O)N2CCCC2C(=O)OCc2ccco2)cc1 (centres undefined) | i | -5.3% | 0.9
CCCc1[nH]nc2c1C(c1ccc(OC(=O)N3CCOCC3)cc1)C(C#N)=C(N)O2 (centres undefined) | i | -2.4% | 1.5
COCC(C)NC(=O)c1cccc(Cl)c1 (centres undefined) | i | -1.2% | 1.9
O=c1ccc2cc(O)c(O)cc2o1 | i | -2.8% | x
O=C(O)c1cc(Nc2nc(N3CCOCC3)nc(N3CCOCC3)n2)ccc1Cl | i | 6.3% | -1.4
COc1ccc(Cn2c(CCC(=O)O)nc3cccnc32)cc1 | i | -14% | -1.8
COc1ccccc1C(=O)N1CC2(C)CC1CC(C)(C)C2 (centres undefined) | i | 5.1% | x
CNc1nc(C)c(C#N)c(-c2ccccc2)c1C(C)=O | i | -6.6% | -0.38
CN(C)c1nc(C(=O)OCCO)nc(N(C)C)n1 | i | 0.2% | -0.33
Cc1onc(-c2c(F)cccc2Cl)c1C(=O)Nc1c(C)n(C)n(-c2ccccc2)c1=O | i | -4.7% | -0.19

Rewritten with values under each structure: part of the list above.
Each structure is followed by: MT1-MMP reporter | Hsc70 | WNV NS2B-NS3 inh
COc1ccc(Cn2c(CCC(=O)O)nc3cccnc32)cc1
→ i | -14% | -1.8
CCOC(=O)c1cc2c(=O)n3cccc(C)c3nc2n(C)c1=N
→ i | -2.9% | 0.31
Cc1ccc(SCCNS(=O)(=O)c2ccc3c(c2)OCCO3)cc1
→ i | -5.6% | -1.1
CCOc1cc(CNc2ccc3[nH]c(=O)[nH]c3c2)ccc1OCC(=O)NC(C)(C)C
→ i | 5.5% | 0.79
Cc1ccc(S(=O)(=O)NCCOc2nc(N(C)C)nc(N3CCOCC3)n2)cc1
→ i | -1.8% | 1.7
COc1ccccc1C(=O)N1CC2(C)CC1CC(C)(C)C2 (centres undefined)
→ i | 5.1% | x

Further records:
structure | MT1-MMP reporter | Hsc70 | WNV NS2B-NS3 inh
CC1(C)NC(=O)N(CCOc2cccc(Oc3ccccc3)c2)C1=O | i | 0.0% | -0.18
COc1ccc(NC(=O)CSc2nc3ccccc3c(=O)n2-c2ccc3c(c2)OCO3)c(OC)c1 | i | -3.2% | -1.4
Cc1csc(NC(=O)Cc2coc3cc(C)c(C(C)C)cc23)n1 | i | -0.5% | x
CN(Cc1ccccc1)S(=O)(=O)c1ccc(NS(C)(=O)=O)cc1 | i | -3.1% | -1
O=c1[nH]c(C2CCCN(S(=O)(=O)c3ccccc3)C2)nc2c1nnn2Cc1ccccc1 (centres undefined) | i | 3.9% | -1.2
CCc1ccc(-c2cn(-c3nc(C)cc(C)n3)c(=N)o2)cc1 | i | 2.1% | -0.56
CC(=O)Nc1ccc(S(=O)(=O)NC(C(=O)O)C2=CCC=CC2)cc1 (centres undefined) | i | 4.7% | -0.07
O=C(C1CC(c2ccc(F)cc2)=NO1)N1CCCCC1 (centres undefined) | i | 2.6% | 0.23
CCOC(=O)COc1ccc(S(=O)(=O)N2CCN(c3ccc(F)cc3)CC2)cc1 | i | 1.2% | x
COc1ccc(N(C(C)C(=O)NC2CCCCCC2)S(C)(=O)=O)cc1 (centres undefined) | i | 1.1% | 0.17
Cc1nc2ccccc2c(=O)n1/N=C/c1c(O)ccc2oc3c(c12)CCCC3 | i | -7.3% | -0.38
CCCCS(=O)(=O)/C=C\C1C2C=CC(C2)C1S(=O)(=O)CCCC (centres undefined) | i | 2.9% | 0.96
CCN(CCNC(=O)C1CCN(Cc2nc(-c3ccc(Cl)cc3)oc2C)CC1)c1ccccc1 | i | -5.4% | -0.29
Cc1ccc(S(=O)(=O)N(C)CCCC(=O)n2nc(C)cc2C)cc1 | i | 1.9% | -0.38
CCn1c(CNC(=O)c2ccc3c(c2)OCO3)nnc1SCC(=O)Nc1cc(C)ccc1OC | i | 3.0% | -0.73
C=CCNC(=S)NNC(=O)c1ccc(OCCCC)cc1 | i | 5.2% | x
CCC(c1nc2ccccc2c(=O)n1-c1cccnc1)N1C(=O)c2ccccc2C1=O (centres undefined) | i | 5.1% | 1.2
Cc1cc(NC(=O)COc2cccc3cccnc23)no1 | i | 6.2% | -1.2
Cn1c(=O)[nH]c(=O)c2c1nc(Br)n2CCOc1ccccc1 | i | -1.7% | -1.4
CC1(C)CC(=O)c2cnc(NCc3ccco3)nc2C1 | i | 3.0% | 0.46
O=C(NCC(c1cccnc1)N1CCN(c2ccccc2)CC1)c1ccc2c(c1)OCO2 (centres undefined) | i | -7.2% | 0.32
O=C(COc1ccccc1)NCCSCc1ccco1 | i | -6.7% | -0.15
Cc1nc2c3ccccc3[nH]c(=O)n2n1 | i | 0.2% | -0.16
Cc1ccc2cc(C#N)c(N3CCCN(S(=O)(=O)c4ccc(F)cc4)CC3)nc2c1 | i | 2.2% | x
CN(C(=O)CSc1nc(-c2ccccc2)cs1)C1CCS(=O)(=O)C1 (centres undefined) | i | 5.5% | x
c1ccc(Cc2nnc3sc(-c4ccc5c(c4)OCO5)nn23)cc1 | i | 3.0% | 0.62
O=[N+]([O-])c1ccc(Sc2cccc3cccnc23)c([N+](=O)[O-])c1 | i | 2.4% | x
CC(Sc1cccc(C(F)(F)F)c1)C(=O)NC(N)=O (centres undefined) | i | 6.2% | -0.58
CCOC(=O)CCCSc1nc2sc(C)c(C)c2c(=O)[nH]1 | i | -1.0% | -0.37
O=C(Nc1ccc(Br)cc1F)c1ccncc1 | i | -4.6% | 0.97
CC(NS(=O)(=O)c1ccccc1)C(=O)NCc1ccco1 (centres undefined) | i | 3.2% | x
Cc1ccc(C(=O)N2CCN(C(=O)N3CCOCC3)CC2)cc1 | i | 0.8% | x
Cc1ccc(N2CC(C(=O)N3CCN(c4ccccc4)CC3)CC2=O)cc1 (centres undefined) | i | 4.0% | -1.6
COc1cc2c(cc1NC(=O)c1ccc3c(c1)OCO3)oc1ccccc12 | i | 2.1% | -0.2
CCN(Cc1ccncc1)S(=O)(=O)c1ccc(C(C)=O)cc1 | i | 5.5% | 1.6
O=C(CSc1nnc(C2CCCCC2)n1-c1ccccc1)NCc1ccco1 | i | 5.1% | -0.55
CN(CC(=O)N1CCCc2c1c(=O)oc1ccc(O)cc21)Cc1ccccc1 | i | -3.9% | -0.05
N/N=c1\sc2ccccc2n1-c1ccccc1 | i | -2.2% | x
O=C(Nc1nnc(-c2ccccc2Cl)o1)c1cccnc1 | i | -3.9% | -0.63
O=C(CSc1ncnc2c1cnn2Cc1ccccc1)Nc1ccc2c(c1)OCCO2 | i | 2.1% | -0.24
C=CCn1c(N)c(C(=O)N2CCN(C)CC2)sc1=S | i | -1.3% | -0.44
CCN(CC)CCNC(=O)c1ccc2c(c1)ncn2C1CCCCC1 | i | -1.4% | 0.75
COc1ccc(OC)c(NC(=O)c2cc3ccccc3o2)c1 | i | -1.0% | -0.14
O=C(c1ccco1)N1CCN(C(=O)C2(S(=O)(=O)c3ccc(Cl)cc3)CC2)CC1 | i | 3.8% | 0.63
CCCCNC(=O)CSc1nc2ccccc2c(=O)n1CC1COc2ccccc2O1 (centres undefined) | i | -0.2% | x
O=S(=O)(NC1CCCCC1)c1ccc(Cl)s1 | i | 5.7% | -0.1
CCCC(=O)Nc1nc2nc(-c3ccccc3)cc(=O)n2[nH]1 | i | 2.5% | x
c1ccc(Cn2nnc3c(N4CCCC4)ncnc32)cc1 | i | 122% | -0.09
CCOc1ccc2nc(NC3=NCN(CC4CCCO4)CN3)nc(C)c2c1 (centres undefined) | i | 1.2% | -0.29
O=C(COc1ccc(F)cc1Br)N1CCc2ccccc21 | i | 5.0% | -0.83
Cn1cccc1Cc1nnc(SCC(N)=O)n1CCc1ccccc1 | i | 0.1% | 0.49
COc1ccc(Cl)cc1C(=O)N1CCN=C1SC | i | 4.1% | 1.5
C/C(=C\c1ccccc1)CN1CCC(C(=O)N2CCC(C)CC2)CC1 | i | 0.4% | x
CCC(=O)N1CCc2cc(S(=O)(=O)NC(Cc3ccccc3)C(=O)Nc3nccs3)ccc21 (centres undefined) | i | 0.5% | x
CC(C)Oc1ccc(C(=O)Nc2ccc(N(C)C)cc2)cc1 | i | 4.3% | -0.39
Cc1cc(N2CCN(c3nnnn3-c3ccccc3)CC2)n2ncnc2n1 | i | 0.9% | 0.33
CCOC(=O)CN(C(=O)Cn1nnc2ccccc21)C(C(=O)NCCOC)c1ccccc1C (centres undefined) | i | -3.1% | -0.12
COc1ccc(NC(=O)c2ccc3c(c2)n(C)c(=O)n3C)cc1 | i | 6.0% | 0.38
COc1ccc(-c2nc3ccccc3n2Cc2ccccc2)cc1 | i | -0.7% | x
O=C(NC(=O)N1CCN(c2cccc(Cl)c2)CC1)c1ccccc1 | i | -1.1% | -0.95

(more compounds)
structure | MT1-MMP reporter | Hsc70 | WNV NS2B-NS3 inh
CC(C)CCNC(=O)NC(=O)CSc1nnc2ccccn12 | i | 2.2% | -0.43
CCN=C1SCC(=O)N1c1ccc(OC)cc1 | i | -5.1% | -0.74
Cc1ccc(C(C(=O)NC(C)(C)C)N(C(=O)c2csnn2)c2cccc(F)c2)o1 (centres undefined) | i | 1.6% | 0.37
O=C1N=C(N2CCCC2)S/C1=C\c1ccccc1 | i | -2.8% | x
O=C(CN1CCN(S(=O)(=O)c2ccc(Cl)cc2)CC1)Nc1ccc2c(c1)OCO2 | i | -5.4% | 1.3
COC(=O)CN(c1ccc(C)cc1)S(=O)(=O)c1ccc2c(c1)n(C)c(=O)c(=O)n2C | i | 2.6% | -1.2
C#CCOC(=O)c1ccccc1C(=O)N(CC)CC | i | 6.6% | -0.57
Cc1nnc(Sc2c(-c3ccccc3)c3ccc(Cl)cc3[nH]c2=O)s1 | i | -2.2% | x
O=S(=O)(Cc1ccccc1)N1CCC(N2CCN(c3ccccc3)CC2)CC1 | i | -2.2% | -0.88
O=C(NCCCN1CCOCC1)c1cc(-c2ccc(O)cc2)on1 | i | 3.1% | -0.03
Cc1csc(OCc2ccc(C#N)cc2)n1 | i | 2.1% | -0.35
COc1ccc(OCC(=O)Nc2ccc3c(c2)nc(CCN2CCOCC2)n3C)cc1 | i | 5.3% | 0.83
Cc1cccc(OCCCC(=O)O)c1C | i | -3.0% | -0.36

An unsorted share of the library; about 0.87% have a hit in one of these screens.
